KCNQ2 enhance = enhances the rat KCNQ2 potassium channel. CHO-K1 KCNQ2, FluxOR thallium flux fluorescence; stronger effect = higher value. B-score at 10 µM. hit rate 0.54% among 310,000. AID 2239;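 active = fluorescence ratio B-score at least 3 SD of library B-scores, with initial fluorescence B-score within 3 SD, cut at about 5.3 in these data; same plate scores as AID 2156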;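 also: B-score of peak minus minimum over baseline fluorescence ratio after K+ and Tl+ stimulus; positive B-score means potentiation of KCNQ2 with more thallium influx and brighter signal; only the inactives scoring about 0 or higher are listed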
Target sequence (O88943 whole entry, looked up): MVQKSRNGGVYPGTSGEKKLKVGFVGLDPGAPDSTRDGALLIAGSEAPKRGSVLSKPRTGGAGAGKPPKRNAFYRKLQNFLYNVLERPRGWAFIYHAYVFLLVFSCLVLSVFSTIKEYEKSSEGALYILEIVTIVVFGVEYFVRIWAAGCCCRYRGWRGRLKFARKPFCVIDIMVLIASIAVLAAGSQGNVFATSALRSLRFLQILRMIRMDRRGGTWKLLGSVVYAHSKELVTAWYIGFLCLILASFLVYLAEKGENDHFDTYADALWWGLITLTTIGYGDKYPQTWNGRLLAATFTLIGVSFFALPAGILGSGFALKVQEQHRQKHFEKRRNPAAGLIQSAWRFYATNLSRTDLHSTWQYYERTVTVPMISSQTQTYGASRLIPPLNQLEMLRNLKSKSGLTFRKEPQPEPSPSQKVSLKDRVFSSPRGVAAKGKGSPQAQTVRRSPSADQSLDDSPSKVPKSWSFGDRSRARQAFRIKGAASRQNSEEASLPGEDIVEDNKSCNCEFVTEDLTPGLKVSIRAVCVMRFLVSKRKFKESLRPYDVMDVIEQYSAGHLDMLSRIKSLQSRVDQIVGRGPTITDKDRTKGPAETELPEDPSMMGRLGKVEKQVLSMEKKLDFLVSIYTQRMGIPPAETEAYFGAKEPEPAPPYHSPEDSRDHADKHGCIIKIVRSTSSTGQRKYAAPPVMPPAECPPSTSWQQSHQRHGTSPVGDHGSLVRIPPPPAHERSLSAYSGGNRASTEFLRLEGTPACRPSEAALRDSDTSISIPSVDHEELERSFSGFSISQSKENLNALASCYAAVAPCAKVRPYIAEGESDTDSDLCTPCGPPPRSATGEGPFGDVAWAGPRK
KCNQ2 enhance baseline = also measured in KCNQ2 enhance; calls as there; B-score; compound at 10 µM; measured here: initial fluorescence intensity artifact check;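 brightness before thallium and not channel activity; 0 = typical well and far values either way flag optical interference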
An asterisk follows results filed as active. This is a subset; count on the stated rates, not on these rows.

SMILES | KCNQ2 enhance | KCNQ2 enhance baseline
CCOC(=O)c1c(-c2ccc(F)cc2)csc1NC(=O)CN1C(=O)NC2(CCCCC2C)C1=O (stereo not given) | 1.1 | -1
CS(=O)(=O)N1CCCC(C(=O)NCCN2CCC(Cc3ccccc3)CC2)C1 (stereo not given) | 0.01 | 0.22
COc1cccc(CN2CCNC(=O)C2CC(=O)NCc2cn3ccc(C)cc3n2)c1OC (stereo not given) | 0.06 | 0.34
Cc1ccc(NC(=O)CC2C(=O)NC3CCCCC3N2C(=O)c2ccc(F)cc2)cc1C (stereo not given) | 0.57 | -0.05
COc1cc([N+](=O)[O-])ccc1NC(=O)NNC(=O)c1sccc1C | 0.01 | -1.9
O=C(CSC(=S)N1CCOCC1)Nc1nccs1 | 0.95 | -0.69
O=C(NN1C(=O)C2C3CCC(O3)C2C1=O)c1ccco1 (stereo not given) | 2 | -0.49
Cc1cc(/C=C2\SC(=S)NC2=O)c(C)[nH]1 | 0.36 | 2.8
O=C(COC(=O)C1COc2ccccc2O1)NC(=O)NC1CCCC1 (stereo not given) | 0.52 | -1.8
CCOC(=O)C(NC(=O)Cc1ccccc1)(Nc1cc(C)on1)C(F)(F)F (stereo not given) | 1.8 | -0.34
CCOC(=O)CSc1nc(C(C)(C)C)nc2ccccc12 | 1.6 | -0.77
CCOC(=O)c1c(C)oc2ccc(OC(=O)N3CCOCC3)cc12 | 3.2 | -0.39
CCCCNC(=S)NC(=O)c1ccc(Cl)cc1Cl | 1.5 | 1.7
Cc1cc(C)c(NC(=O)c2ccc3c(c2)C(=O)N(Cc2cccnc2)C3=O)c(C)c1 | 1.1 | -0.99
COc1ccc(S(=O)(=O)N(CC(=O)NCc2ccncc2)c2ccc(C)cc2)cc1OC | 0.23 | -0.97
CC(=O)N1N=C(c2ccco2)CC1c1cccs1 (stereo not given) | 0.27 | -0.22
CCCCC(=O)Nc1nnnn1CCC | 0.05 | 1.4
CCOC(=O)C1CCCN(C(=O)Cn2c(=O)c3cccn3c3cccnc32)C1 (stereo not given) | 2.4 | 0.67
COc1cccc(N/C(=N/C(=S)Nc2ccc(C)cc2C)Nc2nc(C)cc(C)n2)c1 | 0.12 | 0.02
CCN(CC)c1ccc(/C=N/NC(=O)C(O)c2ccccc2)cc1 (stereo not given) | 0.21 | -0.96
CCOc1ccccc1NC(=O)C1CCCCN1S(=O)(=O)c1ccc(F)cc1 (stereo not given) | 4.2 | -0.76
Cc1cccc(-c2nc(C#N)c(N3CCC(C)CC3)o2)c1 | 0.05 | -0.83
CN(c1cccc(NC(=O)CN(c2ccc(Cl)c(Cl)c2)S(=O)(=O)c2ccccc2)c1)S(C)(=O)=O | 0.72 | -0.06
COC(=O)C[C@H]1c2cc(F)ccc2S(=O)(=O)N1Cc1ccccc1 | 0.2 | -0.41
COc1ccc(NC(=O)CSc2nc(O)c(Cc3ccccc3)c(=O)[nH]2)cc1 | 4.1 | 0.78

Compound profiles, from the list above.
CCN(CC)c1ccc(/C=N/NC(=O)C(O)c2ccccc2)cc1 (stereo not given) across the screens: KCNQ2 enhance = 0.21; KCNQ2 enhance baseline = -0.96
CCCCC(=O)Nc1nnnn1CCC across the screens: KCNQ2 enhance = 0.05; KCNQ2 enhance baseline = 1.4
Cc1ccc(NC(=O)CC2C(=O)NC3CCCCC3N2C(=O)c2ccc(F)cc2)cc1C (stereo not given) across the screens: KCNQ2 enhance = 0.57; KCNQ2 enhance baseline = -0.05

The main list resumes; the 5 compounds before the break are reprinted first.
SMILES | KCNQ2 enhance | KCNQ2 enhance baseline
CCOc1ccccc1NC(=O)C1CCCCN1S(=O)(=O)c1ccc(F)cc1 (stereo not given) | 4.2 | -0.76
Cc1cccc(-c2nc(C#N)c(N3CCC(C)CC3)o2)c1 | 0.05 | -0.83
CN(c1cccc(NC(=O)CN(c2ccc(Cl)c(Cl)c2)S(=O)(=O)c2ccccc2)c1)S(C)(=O)=O | 0.72 | -0.06
COC(=O)C[C@H]1c2cc(F)ccc2S(=O)(=O)N1Cc1ccccc1 | 0.2 | -0.41
COc1ccc(NC(=O)CSc2nc(O)c(Cc3ccccc3)c(=O)[nH]2)cc1 | 4.1 | 0.78
COc1ccc(-c2cc3ccccc3n2CC(O)CN2CCCCC2)cc1 (stereo not given) | 0.15 | 0.59
Cc1ccc(OCCn2cnc3ccccc3c2=O)c([N+](=O)[O-])c1 | 0.42 | 0.81
Cc1ccc(S(=O)(=O)n2nc(OC(=O)c3c(-c4ccccc4Cl)noc3C)cc2N)cc1 | 1.8 | 0.44
O=C(NC(=S)N1CCc2ccccc21)c1ccccc1Br | 14* | 1.6*
COc1ccc(C)cc1Nc1ccc(C(=O)O)cc1[N+](=O)[O-] | 1.8 | -2.7
COc1ccccc1-c1c(C)nn2c(N3CCC(C(N)=O)CC3)cc(C)nc12 | 0.31 | -0.53
CC(C)Nc1nc(NC(C)C)nc(N(C)C(N)=O)n1 | 0.69 | -0.63
CCc1ccc(/C=C2\SC(=S)N(CCC(=O)NCCCN3CCOCC3)C2=O)cc1 | 0.19 | 3.9
O=C(c1ccc(F)cc1)c1cn[nH]c1-c1ccccc1O | 1.3 | -0.8
Cc1ccc(S(=O)(=O)N2CCOCC2)cc1NC(=O)COC(=O)CCn1c(C)csc1=O | 0.68 | 0.91
Cc1ccc(NC(=O)NCCCCc2ccccc2)cc1 | 0.01 | -0.52
Cc1cc(/C(N)=N/OC(=O)Nc2ccc(Cl)cc2)no1 | 0.23 | -3.5
CCC1(C)Cc2c(sc3[nH]c(=S)n(Cc4ccccc4)c(=O)c23)CO1 (stereo not given) | 12* | -1.2*
CCCCn1c(N)c(N(CC(C)C)C(=O)CSc2nnc(C)n2-c2ccc(OC)cc2)c(=O)[nH]c1=O | 0.68 | -1.6
CCn1c(SCC(=O)NC2CCCC2)nnc1-c1c[nH]c2ccccc12 | 0.95 | -0.07
CC(=O)c1cccc(S(=O)(=O)NC2CCCCCC2)c1 | 1.5 | 0.24
COC(=O)Cc1[nH]nc2c1C1(C(=O)N(Cc3ccc(Cl)cc3)c3ccccc31)C(C#N)=C(N)O2 (stereo not given) | 1.1 | 0.76
COc1ccc(NC(=O)CSc2nc3sc(C)cc3c(=O)n2C)c(OC)c1 | 1.6 | 0.08
CCCCN=Cc1sc2ccc(OCC)cc2c1O | 0.22 | -1.1
O=C(c1ccc(-c2ccccc2)cc1)N1CCN(C(=O)c2ccco2)CC1 | 0.86 | -1.6
COc1ccc(/C=C2\C(=N)N3N=C(CC(=O)N4CCCCC4)SC3=NC2=O)cc1 | 1.6 | -0.15
CCOC(=O)c1[nH]ncc1CN1CCC(Cc2ccccc2)(C(=O)OCC)CC1 | 0.97 | -0.1
CCCc1n[nH]c2c1C(=O)CC(C)(C)C2 | 0.01 | -0.08
CCCCCOc1ccc(C(=O)CCN2CCOCC2)cc1 | 0.14 | -1.1
C#CCOCCOCCOCCNc1nc(N2CCOCC2)nc(N2CCN(C(=O)[C@H](CCC(=O)O)n3cc(C(N)Cc4ccc(O)cc4)nn3)CC2)n1 (stereo not given in full) | 0.17 | -0.65

The list continues:
SMILES | KCNQ2 enhance | KCNQ2 enhance baseline
CC1=NN(C(=O)c2ccc(Cl)cc2)C(O)(c2ccccc2)C1 (stereo not given) | 20* | -1.4*
Cc1ccc(N(CC(=O)Nc2ccccc2C(=O)N2CCOCC2)S(C)(=O)=O)cc1 | 0.14 | 0.82
N#C/C(=C\c1ccc(-c2ccc(C(=O)O)cc2)o1)C(=O)Nc1ccc(F)cc1 | 2.9 | 0.66
N#Cc1cccc(-c2nnc(SCc3ccccc3C#N)o2)c1 | 0.57 | -1.4
O=C(Nc1nc(COc2ccccc2)cs1)C1CCC1 | 0.65 | -2.1
CCN(CC)C(=O)CSC(Nc1ccc(F)cc1)=C(C#N)C#N | 0.14 | 1.1
Cc1ccc(N2CCN(c3ccc(C)cc3)C2c2ccccn2)cc1 | 0.5 | 0.08
CC1=NN(c2ccccc2)C(=O)/C1=C\c1cc(C)n(C)c1C | 0.21 | -0.32
Cc1ccc(-c2c(C(=O)N/N=C/c3c[nH]c4ccccc34)nnn2-c2nonc2N)cc1 | 1.2 | -0.47
O=C1CCC(=O)N1c1nc2nc(-c3ccccc3)cc(=O)n2[nH]1 | 0.88 | -0.77
CC(OC(=O)c1cccs1)C(=O)NCc1ccco1 (stereo not given) | 0.8 | 0.29
O=C(COc1ncnc2ccccc12)Nc1cc(S(=O)(=O)N2CCOCC2)ccc1Cl | 0.01 | -1.2
c1cc(C2OCCN2CC2COC3(CCCC3)O2)ccn1 (stereo not given) | 1.7 | 0.22
O=C(COC(=O)c1cc(=O)[nH]c2ccccc12)c1ccccc1 | 0.67 | -0.03
CCOC(=O)N1CCN(C(=O)CSc2ccc(-c3ccccc3)nn2)CC1 | 2 | -4.4
N#Cc1cn(Cc2ccccc2)c(=O)[nH]c1=O | 0.56 | 1.2
CCOC(=O)c1c(/N=C/N(C)C)sc(C)c1C | 1.6 | 0.07
CCC(C)(C)NC(=O)C(c1ccc(OC)cc1)N(C(=O)CCC(=O)Nc1cc(C)on1)c1ccccc1F (stereo not given) | 0.35 | 0.3
CC(NC(=O)c1cccnc1)C(c1cccs1)N1CCN(C)CC1 (stereo not given) | 0.78 | -0.24
CC(C)(C)C(=O)N1CCc2cc(-c3csc(N)n3)ccc21 | 1.9 | 1.9
CCOC(=O)N1CCc2c(sc(NC(=O)c3ccc(S(=O)(=O)N4CCCC4)cc3)c2C#N)C1 | 1.3 | 0.87
CC1=C(C(=O)Nc2ccccc2)C(c2ccco2)C(C#N)=C(SCC(N)=O)N1 (stereo not given) | 0.07 | 0.16
Cc1nc2c(C)cccn2c1/C(O)=C1\C(=O)C(=O)N(CCN2CCOCC2)C1c1ccncc1 (stereo not given) | 0.22 | -0.21
CC(C)CCn1c(=O)c2ccccc2n2c(=S)[nH]nc12 | 2.9 | -0.34
CCOC(=O)c1[nH]c(C)c(C(=O)NC(C)(C)C)c1C | 0.13 | 1.8

Part of the list above, as labelled records.
COC(=O)Cc1[nH]nc2c1C1(C(=O)N(Cc3ccc(Cl)cc3)c3ccccc31)C(C#N)=C(N)O2 (stereo not given)
  KCNQ2 enhance: 1.1
  KCNQ2 enhance baseline: 0.76

Cc1ccc(S(=O)(=O)N2CCOCC2)cc1NC(=O)COC(=O)CCn1c(C)csc1=O
  KCNQ2 enhance: 0.68
  KCNQ2 enhance baseline: 0.91

O=C(COC(=O)c1cc(=O)[nH]c2ccccc12)c1ccccc1
  KCNQ2 enhance: 0.67
  KCNQ2 enhance baseline: -0.03

More results
SMILES | KCNQ2 enhance | KCNQ2 enhance baseline
CC(C)NC(=O)c1cc(-c2cccs2)on1 | 0.57 | -0.4
CN(C)c1cc2c(cc1NC(=O)c1ccccc1Cl)n(C)c(=O)n2C | 0.98 | 0.22
O=C(c1c[nH]c2ccccc12)C(O)C(c1ccccc1)N1CCOCC1 (stereo not given) | 0.24 | 0.5
O=C(NCC1CCCO1)c1ccc(COc2ccc(Br)cc2)cc1 (stereo not given) | 0.32 | -0.01
COc1ccc(CN(C)C(=O)Cc2ccc(OC)c(S(=O)(=O)N3CCOCC3)c2)cc1 | 0.12 | -0.75
O=C(CC1CCCCC1)NCc1ccccn1 | 0.37 | 0.35
c1cncc(C2OCC3(CO2)COC(c2cccnc2)OC3)c1 (stereo not given) | 0.36 | -0.88
Cc1ccc2nc(-c3ccc(NC(=O)c4cccnc4)cc3)oc2c1 | 0.01 | -0.89
CCOC(=O)C(C)Sc1nc(=O)n2cc(C)ccc2n1 (stereo not given) | 0.86 | 0.21
COCc1ccc(C(=O)N2CCCC(N3CCN(c4ccccc4C)CC3)C2)s1 (stereo not given) | 0.99 | -0.59
CCS(=O)(=O)Nc1cc(C(=O)OC)ccc1C(=O)OC | 0.65 | 0.5
Cc1cc(C(=O)Nc2c(C)n(C)n(-c3ccccc3)c2=O)on1 | 0.09 | 0.49
CCc1cc(C(=O)OC)c(NC(=O)CC2Sc3ccc(C(F)(F)F)cc3NC2=O)s1 (stereo not given) | 0.7 | -1.2
CSc1ccc(NC(=O)Nc2cccn(Cc3ccccc3)c2=O)cc1 | 0.62 | 2
Cc1cc(C)c2c(=O)c3c(oc2c1)C(=O)N(CCO)C3c1cccc(O)c1 (stereo not given) | 0.19 | 0.13
Cc1ccccc1NC(=O)NC1(C(=O)NCc2ccco2)CCCCC1 | 1.1 | -0.18
COCc1cc(C)nc(OCC(=O)N/N=C/c2ccc(OC)c(O)c2)c1C#N | 1.7 | 0.19
Nc1ccccc1Nc1ccc([N+](=O)[O-])cc1[N+](=O)[O-] | 0.17 | 0.06
CN(CC(=O)Nc1ccc(F)cc1)C(=O)COC(=O)c1cc([N+](=O)[O-])ccc1N1CCOCC1 | 0.24 | 0.14
Cc1ccc(CNCc2ccc3c(c2)OCO3)cc1 | 2.3 | 0.02
COc1ccc(CN2CCN(C(=O)Cn3nc(C(=O)O)c4ccccc4c3=O)CC2)cc1F | 0.11 | 1.5
Cc1cc(C(=O)N/N=C2\CCCc3ccccc32)c(C)o1 | 0.86 | 0.03
N#CC(C#N)=Cc1ccc(OC(=O)c2ccccn2)cc1 | 0.82 | 0.38
CS(=O)(=O)N1CCN(c2ccccc2F)CC1 | 0.84 | -3.3
Cc1[nH]c(=O)[nH]c(=O)c1/C=N\NC(=O)CCc1ccc(OC(C)C)cc1 | 0.09 | 0

(next part)
SMILES | KCNQ2 enhance | KCNQ2 enhance baseline
COc1ccc(NS(=O)(=O)c2ccc(Oc3ncccn3)cc2)cc1 | 1.4 | 2.9
COc1cc(/C=N\NC(=O)c2sc(N)nc2C)cc(OC)c1OC | 0.03 | -0.23
CCCCOc1ccc(CSC(CC(=O)O)C(=O)O)cc1 (stereo not given) | 0.36 | -0.07
Cc1cccc(NC(=O)N2CCC(NC(=O)c3ccco3)CC2)c1 | 0.69 | -0.41
Nc1ccc(N2CCN(C(=O)c3cccs3)CC2)cc1 | 0.65 | -0.02
CCCCc1ccccc1NC(=S)NC1CCCC1 | 0.83 | 0.73
COC(=O)c1cccc(N2C(=O)C3CC=CCC3C2=O)c1 (stereo not given) | 2.4 | -1.5
COc1ccc(C2=C(Nc3ccc(C)cc3)c3ccccc3C2=O)cc1 | 0.16 | -1.4

Screening results deposited in PubChem by Johns Hopkins Ion Channel Center.
